# Screening results from PubChem.
# PINK1 expr mod: modulators of PINK1 expression; PINK1 immunofluorescence, high-content cytometry, 24 h; Potency, µM (doses to about 76.6 µM), for inactives: at the highest dose activation (PINK1 increase), actives largely listed as activators; 410,000 tested, 0.2% active; active = well fitted activation curve with a large enough effect; inconclusive = small, poorly fitted or top-dose-only effect; inactive = flat fitted curve, though single readings scatter; cell line not stated here;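 further: potency means the concentration at half of the fitted maximal effect; % of control where 0% means no effect; nearly all actives have a fitted effect of over 65% in size; a mitochondrial uncoupler was the plate control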
#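 PINK1 protein, normally rapidly degraded, was detected by immunofluorescence after 24 hour compound treatment of a stable cell line. Titration data (5 concentrations) came from laser-scanning cytometry, with CCCP-treated wells as controls.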
# TRPML1 agonist: human mucolipin-1 channel agonism. Q9GZU1. TRPML1-expressing cells, Ca2+ dye fluorescence, FDSS; host cell line not named in the record; reference of the full effect not given here. activation, % (test concentration not listed). 410,000 tested, 0.12% active. AID 624414; in the data active = activation above about 50%; inconclusive = about 30% to 50%; inactive = below about 30%; further: 0% is about no effect; the text of the record puts the active cut at 80%
#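 In this qHTS format, compounds were pin-transferred onto Ca8-dye-loaded TRPML1-DL cells induced with Tet overnight, and intracellular Ca2+ fluorescence was recorded kinetically for 110 s after a 10 s baseline. A subsequent 4uM final 54-4 (EC80) addition followed by a second 110 s read served as the antagonist phase.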
# TRPML1 inh: blocks the human TRPML1 channel. Q9GZU1. AID 624415. 390,000 tested, 0.02% active. TRPML1-inducible cells, Ca2+ dye fluorescence, FDSS; active compounds read low; inhibition of EC80 agonist-evoked calcium signal. activity change, negative = inhibition, % (concentration not given with the values); in the data active means activity change below about -50%; inconclusive means about -30% to -50%; inactive means above about -30%;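 further: stimulus is agonist 54-4 at its EC80 concentration; on the % scale 0 is the no-effect control and ±100 the full control effect; the text of the record puts the active cut at -80%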
#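 TRPML1-DL cells, Tet-induced overnight (~16 h, 37 °C) at 1,500 cells/well, were loaded with Ca8 no-wash dye plus quencher for 45-90 min at room temperature. Compounds were pinned during FDSS kinetic reading; agonist 54-4 at EC80 (4 uM final) then added.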
# Sfp inh: Sfp phosphopantetheinyl transferase inhibition; Biochemical Sfp PPTase activity, qHTS; Potency, µM, without a hit: max response, negative = inhibition, actives largely listed as inhibitors; 310,000 tested, 3.5% active; active means well fitted inhibition curve with a large enough effect; inconclusive means small, poorly fitted or top-dose-only effect, or another doubt; inactive means no such curve, though single readings can be large or run the other way;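 further: the enzyme is Sfp with the accession as filed and its product quenches rhodamine fluorescence; potency means the concentration at half of the fitted maximal effect; 0% = enzyme reaction without inhibitor and -100% = no enzyme wells; top concentration of the series not given in the record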
#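 Sfp 15 nM + cpd, 15 min RT; start w/ rhodamine-CoA 5 uM, BHQ-2-YbbR 12.5 uM (final); 50 mM Hepes pH 7.6, 10 mM MgCl2, 0.01% NP-40, 0.01% BSA; read 525/598 nm at 0 and 30 min.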
# TRPV1 potentiator: human TRPV1 potentiation; TRPV1-expressing cells, Fluo-8 calcium influx, capsaicin EC20 potentiation; host cell line not named in the record; control for the full effect not named in the record; potentiation, % at 8.33 µM; 320,000 tested, 0.02% active; Q8NER1; active means potentiation above 80%; inconclusive means 30% to 80%; inactive means below 30%; further: 0% is about no effect
# Target sequence (Q8NER1 whole entry, looked up): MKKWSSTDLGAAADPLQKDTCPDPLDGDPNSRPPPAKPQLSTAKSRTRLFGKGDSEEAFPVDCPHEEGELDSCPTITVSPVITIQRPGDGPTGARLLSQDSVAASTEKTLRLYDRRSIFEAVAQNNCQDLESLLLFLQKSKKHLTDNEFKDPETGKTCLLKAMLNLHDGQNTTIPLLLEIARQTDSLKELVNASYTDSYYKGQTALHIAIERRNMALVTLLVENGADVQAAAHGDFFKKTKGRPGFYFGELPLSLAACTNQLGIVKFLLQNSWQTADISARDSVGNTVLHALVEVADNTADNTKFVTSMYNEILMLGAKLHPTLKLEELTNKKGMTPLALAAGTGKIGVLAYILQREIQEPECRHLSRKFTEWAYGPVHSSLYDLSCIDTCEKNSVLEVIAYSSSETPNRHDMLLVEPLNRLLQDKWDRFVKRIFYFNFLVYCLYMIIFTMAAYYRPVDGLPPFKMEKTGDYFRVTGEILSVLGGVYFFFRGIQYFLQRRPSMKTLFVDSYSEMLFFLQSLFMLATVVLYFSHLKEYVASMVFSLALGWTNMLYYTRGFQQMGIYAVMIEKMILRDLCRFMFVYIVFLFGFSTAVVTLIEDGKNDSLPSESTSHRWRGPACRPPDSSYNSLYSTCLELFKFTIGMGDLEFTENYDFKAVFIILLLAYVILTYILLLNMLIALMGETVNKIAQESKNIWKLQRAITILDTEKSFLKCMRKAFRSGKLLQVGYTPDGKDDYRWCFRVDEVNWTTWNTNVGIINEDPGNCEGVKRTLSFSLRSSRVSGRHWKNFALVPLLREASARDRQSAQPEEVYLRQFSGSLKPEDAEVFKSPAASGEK
#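 Cells expressing TRPV1 were dye-loaded with Fluo-8 and read kinetically: 10 s baseline, 3 min after compound (agonist portion), then 2 min after EC20 capsaicin (allosteric enhancer portion). Calcium-bound dye fluorescence at 480/520 nm.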
# ClpP mod: qHTS Assay for Activators of ClpP; 340,000 tested, 1.9% active; purified B. subtilis ClpP, FRET peptide cleavage, 20 min; Potency, µM (top dose mostly 57.5 µM), for the others: at the top dose activity change, negative = active; AID 651965, 2013; ATP-dependent Clp protease proteolytic subunit (Bacillus subtilis (strain 168)), P80244; active = well fitted falling curve with a large enough effect; inconclusive = small, poorly fitted or top-dose-only effect; inactive = no such curve, though single readings can be large or run the other way; further: potency means the concentration at half of the fitted maximal effect; the source files actives as falling curves though it sought activators and does not explain the sign; nearly all actives have a fitted effect of over 65% in size; many hits overshoot -100%
# Target sequence (P80244 whole entry, looked up): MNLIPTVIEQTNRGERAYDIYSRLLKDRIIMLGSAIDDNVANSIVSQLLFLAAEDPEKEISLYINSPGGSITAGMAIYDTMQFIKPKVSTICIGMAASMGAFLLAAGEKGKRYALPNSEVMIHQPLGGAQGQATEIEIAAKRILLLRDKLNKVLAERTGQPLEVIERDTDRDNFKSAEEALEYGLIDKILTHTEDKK
#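 ClpP 10 microg/mL final, pH 8 Tris/KCl buffer with BSA, glycerol, Tween-20; compound pinned in; FRET-FV substrate; RT 20 min; Ex320/Em430; ΔFRET vs ADEP 5.8 microM, DMSO, no enzyme.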
# Menin MLL FP FL: menin-MLL binding inhibition, fluorescein peptide; AID 1766; 290,000 tested, under 10 active; FP activity change, % at 61.4 µM; Fluorescence polarization, fluorescein-MLL peptide displacement from menin; inconclusive = falling polarisation curve, or a change in total fluorescence; inactive = total fluorescence flat and polarisation flat or rising; no compound was filed as active; the % refers to the polarisation; negative = inhibition;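 further: % of control where 0% means no effect; inhibitors lower the polarisation; unlabelled MLL peptide was the positive control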
# * marks the source's active call; other numbers are inactive results; ? = inconclusive; nt = not tested or not shown; [ ] = another dose, or the depositor's remark.
SMILES,PINK1 expr mod,TRPML1 agonist,TRPML1 inh,Sfp inh,TRPV1 potentiator,ClpP mod,Menin MLL FP FL
COc1ccc(-n2nc3cc(C)c(N)c(Br)c3n2)cc1,6.1%,-0.8,26.2,39.8µM*,11.7,-23.6%,3.6
COc1ccc(CCNC(=O)CC2SC(=Nc3cc(C)cc(C)c3)NC2=O)cc1OC (centres undefined),0.7%,0.8,25.3,-6.2%,0.2,0.7%,1.8
Cc1ccc(C(=O)N2CCCCC2C(=O)O)o1 (centres undefined),1.2%,-0.9,5.1,-0.8%,-8.3,nt,-1.8
Nc1ccn(CC(=O)N2CCN(c3ccccn3)CC2)c(=O)n1,1.9%,-0.5,5.6,nt,-5.8,4.3%,nt
COc1ccc(CN2CCCC(C(=O)Nc3cccc(-n4cccn4)c3)C2)c(F)c1 (centres undefined),1.2%,-0.3,5.4,11.4%,2.9,-2.0%,nt
COc1ccc2ncc3c(-c4ccc(C)c(C)c4)nn(CC(=O)Nc4ccccc4)c3c2c1,7.5%,0.4,23.8,nt,nt,31.3%,nt
O=C(O)C1=C(C(=O)Nc2cccc(C(F)(F)F)c2)CCCC1,-1.2%,1.3,11.1,-13.0%,9.5,nt,-1.6
O=C(NCc1cccnc1)c1ccc(NC(=O)c2ccc(Br)cc2)cc1,14.5%,-1.0,-14.8,-18.3%,2.8,-0.5%,-6.8
Cc1ccc(NC2=C(NC(=O)c3ccccc3)C(=O)c3ccccc3C2=O)cc1Cl,11.3%,1.1,57.0,10µM*,-6.7,-0.8%,1.9
O=C(Nc1ccc2snnc2c1)N1CCSCC1,-2.8%,-1.2,-3.6,2.1%,-8.0,-4.0%,9.0
COc1ccccc1N=c1oc2cc(O)ccc2cc1C(N)=O,-0.3%,1.8,13.8,6.9%,14.7,-1.0%,?
CN(C)C(=O)c1ccc(NC(=O)c2cc(-n3cnnc3)ccc2Cl)cc1,0.2%,0.5,-19.1,-1.2%,26.2,-0.8%,-0.3
Cc1ccc(OCCC(=O)OCC(=O)Nc2cc(S(=O)(=O)N(C)C)ccc2C)cc1,2.1%,1.3,0.3,22.8%,12.3,nt,-1.0
CCCCn1c(N)c(N(CCOC)C(=O)CCc2ccc(OC)cc2)c(=O)[nH]c1=O,-0.7%,0.9,7.4,3.9%,-9.1,-2.4%,-3.5
COCCN(C(=S)Nc1cccc(C)c1)C(C)c1cccs1 (centres undefined),0.6%,0.3,17.2,13.2%,0.5,1.3%,3.3
Cc1cc(C(=O)N/N=C/c2cccn2C)no1,0.6%,-0.5,-18.0,6.4%,-4.7,-13.6%,-0.7
CCN(CC)S(=O)(=O)c1ccc(NC(=O)c2cc(-c3ccccc3)nc3ccccc23)cc1,0.0%,-0.4,2.7,2.9%,-1.6,-8.5%,4.0
Cc1cc(Br)ccc1NC(=O)CNC(=O)CSc1ncccn1,0.1%,0.8,-2.1,nt,4.8,2.3%,nt
NC(=O)CC1(CC(=O)O)CCCCC1,6.7%[38.3 µM],2.1,5.4,4.5%,-8.6,0.6%,3.5
COCCCNC(=O)Cn1c(=O)n(Cc2ccccc2Cl)c(=O)c2cc(OC)c(OC)cc21,2.6%,-0.1,-6.1,15.3%,-3.0,3.5%,0.6
CCCN(CC(=O)Nc1ccccc1OC)C(=O)CCC(=O)c1ccc(Cl)s1,-0.5%,-0.6,15.6,nt,-2.9,-1.3%,nt
CCOC(=O)C1CCCN(C(=O)c2[nH]c3ccccc3c2Sc2ccc(Cl)cc2)C1 (centres undefined),2.1%,1.5,-28.1,nt,nt,-2.3%,nt
Cn1c2c(c(=O)n(C)c1=O)C(NC(=O)c1ccco1)(C(F)(F)F)C(=O)N2 (centres undefined),-1.1%,-1.0,16.5,9.0%,16.3,0.1%,-1.3
O=C(O)c1ccccc1OCc1nc2ccccc2s1,-0.5%,1.1,-6.2,-10.2%,4.5,nt,-1.7
CC(C)C(NS(=O)(=O)c1cccs1)C(=O)N(C)Cc1ccccc1 (centres undefined),nt,0.0,-5.6,19.7%,-3.8,-3.8%,-1.9

# Some entries already given, showing only Sfp inh:
SMILES | Sfp inh
CCCCn1c(N)c(N(CCOC)C(=O)CCc2ccc(OC)cc2)c(=O)[nH]c1=O | 3.9%
NC(=O)CC1(CC(=O)O)CCCCC1 | 4.5%

# Additional records
SMILES,PINK1 expr mod,TRPML1 agonist,TRPML1 inh,Sfp inh,TRPV1 potentiator,ClpP mod,Menin MLL FP FL
Cc1ccccc1-n1c(C)nc2ccccc21,0.6%,-0.2,-2.0,7.0%,0.7,5.7%,-0.9
O=C(CCC1CCCCC1)NCc1ccccn1,7.4%,1.0,2.1,2.9%,2.1,-2.8%,1.5
Cc1ccc(Cc2c(C3CCCCC3)nc3c(C)cc(Br)cn23)cc1,1.1%,0.5,nt,nt,nt,-16.6%,nt
COc1ccc(O[C@H]2C=C[C@@H](c3ccccc3)O[C@@H]2COC(=O)CC/C(C)=N/O[C@H](C)c2cn([C@@H]3COC[C@H]3O)nn2)cc1,nt,nt,nt,8.8%,-6.5,nt,2.0
Cc1cc(C)c2c(=O)c3c(oc2c1)C(=O)N(Cc1ccco1)C3c1ccc(F)cc1 (centres undefined),2.4%,0.0,-8.8,nt,nt,-1.0%,nt
CCOC(=O)C1CCCN(c2nc(C)nc3c2oc2ccccc23)C1 (centres undefined),6.5%[38.3 µM],3.2,-7.0,0.8%,-0.6,-9.0%,2.4
O=C1CCCC2=C1C(c1ccsc1)CC(=O)N2c1nnc(SCc2ccccc2)s1 (centres undefined),0.4%,0.0,-0.1,-7.8%,-15.1,0.2%,4.0
COc1ccc(C2=Nn3c(nnc3-c3ccccn3)SC2)cc1OC,0.7%,0.4,-10.1,-17.1%,nt,3.6%,1.0
COc1cccc(NC(=O)C2CC(=O)n3cnnc3S2)c1 (centres undefined),0.4%,-0.8,-1.9,44.7µM*,-8.9,0.8%,0.3
CCc1ccccc1NC(=O)C1CCCN1C(=O)Nc1ccc(C)cc1 (centres undefined),3.5%,-0.8,-2.2,4.4%,-5.1,-1.4%,nt
COc1cc(CN2CCC(C(=O)NC3CCCC3)CC2)cc(OC)c1O,-4.3%,-1.0,17.2,?,-1.8,-2.8%,-1.4
O=C(c1cccc(Cl)c1)N1CCN(C2CCCCC2)CC1,-1.2%,-0.2,-7.2,0.1%,14.9,1.8%,0.2
N#Cc1c(F)cccc1NCCCn1ccnc1,-0.6%,-0.2,-6.0,nt,nt,nt,nt
O=C(NCc1ccco1)c1cnn2cccnc12,-1.4%,0.1,18.2,6.8%,8.4,nt,-0.7
CC(C)CNS(=O)(=O)c1ccc(CCC(=O)Nc2cc(Cl)ccc2Oc2ccccc2)cc1,-3.2%,-0.4,-11.1,18.2%,3.9,-4.4%,0.2
COC(=O)[C@]1(Cc2ccccc2)N[C@H](c2ccc(-c3ccc(Cl)c(Cl)c3)cc2)[C@@H]2C(=O)N(C)C(=O)[C@@H]21,0.1%,-0.6,20.0,nt,-34.7,-19.2%,nt
Cc1cccc(C(=O)N[C@H](C(=O)Nc2nc3ccccc3[nH]2)C(C)C)c1,4.9%,4.8,-5.3,13.0%,3.9,0.5%,-5.5
O=c1c2[nH]c3ccccc3c2nc2n1CCCS2,1.4%,0.3,3.8,8.8%,1.1,nt,-0.4
Cc1cccc(C(=O)N2CCc3cc(-c4nc(NC(=O)Cn5nnc6ccccc6c5=O)sc4C)ccc32)c1,nt,nt,nt,0.7%,-9.6,nt,8.5
CCCCn1c(C)nc2cc(S(=O)(=O)N3CCOCC3)ccc21,3.5%,-0.6,20.8,nt,-23.8,1.4%,nt
COc1cc(C(C(=O)NC2CCCCC2)N(Cc2cccs2)C(=O)Cc2c[nH]c3ccccc23)cc(OC)c1OC (centres undefined),7.8%,0.9,11.7,-0.3%,0.5,2.1%,1.2
COC(=O)Nc1nc2c(s1)CCCC2,-0.6%[38.3 µM],0.3,-4.1,-11.8%,-15.5,-0.9%,-0.2
O=C(/C=C/c1ccc(S(=O)(=O)N2CCOCC2)cc1)N1CCN(c2ccc(F)cc2)CC1,1.8%,0.0,13.5,10.7%,-11.9,nt,1.1
Oc1cncc(Cc2ccccc2)c1,0.6%,-1.0,27.4,22.7%,4.7,-0.4%,-8.3
O=C(Nc1cccc(S(=O)(=O)NC2=NCCCCC2)c1)C1COc2ccccc2O1 (centres undefined),0.7%,-0.4,-23.3,20.3%,3.3,-0.4%,1.3

# Continued.
SMILES,PINK1 expr mod,TRPML1 agonist,TRPML1 inh,Sfp inh,TRPV1 potentiator,ClpP mod,Menin MLL FP FL
CN(CC(=O)Nc1ccccc1Cl)C(=O)CSc1nnc(-c2ccco2)o1,2.9%,0.3,10.2,-2.9%,1.3,nt,?
CCN(CC)CCCNC(=O)Cn1nc([N+](=O)[O-])c(Cl)c1C,-0.5%,-0.2,-0.2,11.2%,-10.9,1.1%,4.0
CCCOc1cccc(C2C(C(=O)c3cccs3)=C(O)C(=O)N2CCN2CCOCC2)c1 (centres undefined),-1.7%,-0.6,-11.5,-6.8%,-1.9,0.4%,-1.0
CCOC(=O)CN=C(NS(=O)(=O)c1ccc(Cl)cc1)c1ccccc1,0.4%,-0.8,8.3,0.7%,7.1,nt,-0.2
CC(=O)NC1=NC(=O)/C(=C/c2cc(C)n(-c3ccc(NC(C)=O)cc3)c2C)S1,-0.1%,4.7,-4.0,44.7µM*,-6.4,nt,?
Cc1ccc(C(C)NC(=O)c2cccs2)cc1 (centres undefined),-1.2%,1.1,9.2,nt,nt,nt,nt
COc1ccc(OC)c(NC(=O)Cn2cccc2)c1,5.1%[38.3 µM],-0.3,6.4,-3.5%,nt,-0.7%,-1.4
CCCCN(C)C(=O)Cn1c(SCC(=O)Nc2ccc(C)c(C)c2)nc2ccccc21,1.3%,1.4,-3.7,nt,nt,-2.9%,nt
O=C(CSc1nccc(=O)[nH]1)Nc1cccc2ccccc12,1.6%,-0.4,4.4,5.6%,-3.2,nt,nt
CSCCC(NS(=O)(=O)c1ccc2c(c1)oc(=O)n2C)C(=O)NCc1ccc(C)cc1 (centres undefined),-0.6%,0.6,5.4,-6.1%,4.9,-2.3%,0.1
CCCCn1c(SCC(=O)NNC(=O)c2ccco2)nnc1-c1ccco1,0.6%,-0.3,3.4,8.5%,-5.2,nt,0.8
